High-throughput results deposited in PubChem BioAssay by several laboratories.
eIF4H FP inh: inhibitors of RNA binding by human eIF4H. 0.94% of 290,000 active. inhibition, % at 35 µM. eIF4H fluorescence polarization binding assay. Q15056;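 active means 50% or more with normal probe brightness, or confirmed in later tests; inconclusive means above 50% with abnormal brightness, or retests that disagree; inactive means below 50% or failed in later tests; about a fifth of its hits are not listed in these tables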;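 further: calls also rest on retests at 20 µM and on dose response follow-up; 0% = protein and probe with vehicle and 100% = probe without protein; strong numbers were not always called active; many hits fall short of the cut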
CSC inhib: cancer stem cell inhibition. 1.1% of 300,000 active. inhibition, % at 7.5 µM. AID 2717. cancer stem cell-like cells viability, luminescence;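 active means mean at 75% or more and at least half the replicates too; inconclusive means mean and replicates disagree; tested in HMLE shEcad cells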;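 further: 0% = median of negative and 100% = median of positive control wells; the first replicate is given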
MT1-MMP act inh: MT1-MMP (human) activation inhibition; P50281; HT1080 RFP-PRO-GFP cells, GFP/RFP ratio fluorescence, overnight; percent of plate control window, DMSO zero; GFP/RFP ratio change, % at 20 µM; 0.061% of 360,000 active;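 active means GFP/RFP ratio change of at least 30% with cell ATP level not reduced by more than half and red fluorescence within 50% of control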; further: strong numbers were not always called active
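Assay system: HT1080 RFP-PRO-GFP cells. Benchmarks: DMSO vehicle wells and RFP-L50D-GFP reporter cell wells. Times: overnight cell settling, then overnight compound exposure, 37 °C, 5% CO2. Compound: 20 µM single dose, 1% DMSO. Read-out basis: GFP/RFP fluorescence ratio.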
UUG fidelity: modulators of start codon recognition fidelity in yeast. S. cerevisiae UUG-firefly luciferase reporter, luminescence/redox ratio. activity score, % at 18.7 µM. 0.13% of 350,000 active. AID 602363;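 active means replicate mean at a twofold rise or more, about +100% in these data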;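 further: firefly luciferase made from a UUG start codon reports start codon fidelity; reporter light over untreated wells divided by growth signal over untreated wells; some hits fall short of that in this replicate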
HIV Env fusion: blocks HIV Env-driven cell-cell fusion | HeLa-JRFL Env/CEM21 cell fusion, luciferase | inhibition, % at 12.3 µM | 1.1% of 360,000 active | AID 651610;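 active means mean replicate inhibition score of at least 50 and every replicate individually at or above 50; inconclusive means only one of the two criteria met; inactive means mean below 50 and not all replicates reaching 50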;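 further: 0% = plate neutral controls and 100% = maraviroc near 300 nM; one replicate is shown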
PABP FP inh: PABP-poly(A) binding inhibition; P11940; PABP-poly(A) RNA binding, fluorescence polarization; inhibition, % at 35 µM; 1% of 290,000 active;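 active means 50% or more with normal probe brightness, or confirmed in later tests; inconclusive means above 50% with abnormal brightness, or retests that disagree; inactive means below 50% or failed in later tests; about a fifth of its hits are not listed in these tables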;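 further: calls also rest on retests at 20 µM and on dose response follow-up; controls were probe without protein and protein plus probe with vehicle; some compounds called inactive have numbers as strong as hits; many hits fall short of the cut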
Target sequence (P11940 whole entry, looked up): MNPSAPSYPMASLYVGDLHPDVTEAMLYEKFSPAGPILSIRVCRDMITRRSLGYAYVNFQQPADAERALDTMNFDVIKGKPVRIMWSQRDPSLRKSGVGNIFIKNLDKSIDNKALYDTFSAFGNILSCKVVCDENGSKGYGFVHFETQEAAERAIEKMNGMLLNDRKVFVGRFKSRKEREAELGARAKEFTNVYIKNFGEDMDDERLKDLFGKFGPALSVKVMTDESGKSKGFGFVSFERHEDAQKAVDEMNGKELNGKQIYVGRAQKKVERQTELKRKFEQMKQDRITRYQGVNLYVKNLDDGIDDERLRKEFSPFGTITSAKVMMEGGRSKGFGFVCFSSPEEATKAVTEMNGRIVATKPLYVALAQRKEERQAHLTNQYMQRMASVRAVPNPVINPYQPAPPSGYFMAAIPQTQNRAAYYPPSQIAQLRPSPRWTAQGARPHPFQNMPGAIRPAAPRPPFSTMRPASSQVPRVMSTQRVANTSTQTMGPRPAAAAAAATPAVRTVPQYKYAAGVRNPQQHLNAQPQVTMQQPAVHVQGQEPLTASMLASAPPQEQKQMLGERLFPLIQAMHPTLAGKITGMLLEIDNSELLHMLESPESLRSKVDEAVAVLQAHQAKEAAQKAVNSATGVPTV
Rce1 inhib: yeast Ras-converting enzyme inhibition. yeast membranes, quenched prenylated peptide cleavage fluorescence. calls only. 0.27% of 290,000 active. AID 2563;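 active means fall in fluorescence gain of 50% or more versus controls, with final raw signal at or below 3038400; inconclusive means same 50% fall but final raw signal above 3038400; inactive means fall in fluorescence gain under 50%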;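 further: plate controls were neutral control wells for no effect and wells lacking membranes for full effect; tested at 10 µM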
eIF4H FP inh retest: recorded beside eIF4H FP inh, whose call it bears; inhibition, %; compound at 20 µM; confirmation average;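 mean of two retest wells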
PABP FP inh retest: second read-out of PABP FP inh, no call of its own (marks repeat the call); inhibition, %; compound at 20 µM; confirmation repeats;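 mean of two retest wells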
MT1-MMP act inh RFP: also measured in MT1-MMP act inh; calls as there; RFP signal change, %; measured here: RFP expression control read;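 0 = vehicle wells; hits needed this value within 50% of zero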
* hit, by the source's call; i = inactive; ? = inconclusive; nt = no result given.

SMILES	eIF4H FP inh	CSC inhib	MT1-MMP act inh	MT1-MMP act inh RFP	UUG fidelity	HIV Env fusion	PABP FP inh	Rce1 inhib	others
COc1cc2c(cc1OC)C(c1ccccc1OC(C)C)CC(=O)N2 (configuration not stated)	-0.7	-0.3	-0.7	-9.4	-2.6	-17.5	-2.8	i
CCNc1c(NC(C)=O)c(=O)oc2ccccc12	-1.2	-4.0	1.3	1.6	nt	-23.9	-2.6	i
Cn1c(=O)c2cc(NC(=O)NCc3ccccc3)ccc2n1Cc1cccc(C(F)(F)F)c1	nt	nt	7.0	-6.9	-26.9	19.3	nt	nt
Cc1cccc(CSc2nc3c(c(=O)[nH]2)CCC3)c1	-13.2	-0.8	4.2	2.8	-16.8	1.3	?	i
O=C(Cn1nnc(-c2ccccc2)n1)N1CCCCC1	-2.5	6.9	4.4	3.8	-7.4	-14.1	-6.5	i
Cc1nc(CS(=O)(=O)c2ccccc2)cc(Sc2ccccc2Cl)n1	-13.8	-5.8	-3.2	-2.5	-13.2	nt	-12.8	i
O=C(NCCCn1ccnc1)c1nc(Cn2cc(Br)cn2)no1	-16.8	nt	0.3	2.6	-9.7	0.6	5.2	i
Cn1c(=Nc2ccc(N3CCOCC3)cc2)ccc2ccccc21	-0.6	6.7	-6.8	-2.1	-8.3	nt	33.5	i
O=C1CCCc2sc3c(c2N1)CCCCC3	-7.2	-12.7	3.9	3.8	-19.6	-69.1	-6.5	i
CCCn1nc2cc(C(=O)NCCc3cccs3)ccc2c1OCC	-3.4	4.0	3.3	0.3	-17.0	nt	-1.9	i
O=C(CCN1C(=O)C2CCCCC2C1=O)Nc1nc2c(F)cc(F)cc2s1 (configuration not stated)	nt	5.2	-4.8	-5.0	-6.3	-34.6	nt	nt
c1ccc(CSc2cc3ccccc3[nH]2)cc1	nt	nt	-2.0	0.9	-5.4	22.1	nt	i
Cc1ccc(S(=O)(=O)NC2c3cccc4cccc(c34)C2Sc2nncn2C)cc1 (configuration not stated)	1.6	2.7	-6.8	-2.1	-10.1	4.5	-0.3	i
O=C(NC1CCCN(Cc2ccccc2F)C1)C1CCC1 (configuration not stated)	6.0	-10.6	-3.4	0.8	-8.5	-4.1	3.0	i
COC(=O)C1=NNC(C(=O)c2ccco2)C1c1ccccc1 (configuration not stated)	0.6	-15.8	-5.1	-0.3	nt	-16.5	-4.2	i
Cc1ccc2nc(SCC(=O)NNC(=O)c3ccccc3)[nH]c2c1	-1.9	-3.4	1.3	3.4	nt	1.8	-5.2	i
Cc1cc2nnc(SCC(=O)OC(C)C)n2c2ccccc12	-4.9	-16.7	4.7	8.2	-8.8	-32.3	4.4	i
O=S(=O)(NNc1ccc(Cl)nn1)c1ccc(F)cc1	1.5	10.5	1.4	3.6	-8.5	16.1	0.9	i
CCOC(=O)C1CCN(C(=O)/C=C/c2ccc(S(=O)(=O)N3CCOCC3)cc2)CC1	nt	-18.7	4.1	-6.1	12.8	nt	nt	nt
CCOC(=O)Cn1nc(-c2ccccc2)c2cnc3ccc(CC)cc3c21	-0.4	-10.2	2.9	-1.4	-3.2	nt	6.0	i
COc1ccc(C2/C=C\CN(C(=O)c3ccccc3)CC(=O)N2Cc2ccc(F)cc2)cc1 (configuration not stated)	4.3	-11.2	0.0	-2.2	-1.7	nt	-5.7	i
C#CCNC(=O)C1=C[C@@H](c2ccc(C#C)cc2)C[C@@H](OCCCCO)O1	nt	-3.9	-3.9	-0.9	-26.2	4.0	nt	i
CCN(CC)c1ccc(NC(=O)Cn2c(C(C)NC(=O)c3ccc(C)cc3)nc3ccccc32)cc1 (configuration not stated)	1.4	nt	-6.6	-2.2	-7.0	-11.6	-5.7	i
Cc1cc(C)c(NC(=S)NC(=O)c2ccccc2)cc1C	nt	nt	-0.9	-4.9	-1.6	-26.8	nt	nt
CCOC(=O)c1[nH]c(C)c(C(=O)/C=C/c2ccc(C(=O)O)cc2)c1C	-10.4	-6.1	-5.4	-9.1	-13.1	-12.3	5.9	i
Cc1ccc2ccccc2c1C(O)c1ncc(-c2cccc(F)c2)[nH]1 (configuration not stated)	nt	nt	-0.5	-4.5	-14.0	-20.2	nt	nt
CCCN1CCC(NCc2cn(C)nc2-c2ccc(Oc3ccccc3)cc2)CC1	0.6	6.2	2.6	1.1	nt	6.8	3.4	i
Cc1nc2ccccc2c2oc(C(=O)N3CCC(N4CCCCC4)CC3)cc12	2.0	-12.1	-3.7	-1.2	-25.2	nt	-11.9	nt
CCN1CCN(C(=O)/C=C\C(=O)O)CC1	-3.4	-11.8	0.4	-1.8	-5.2	nt	5.1	i
OCCC1CN(Cc2ccc3ncccc3c2)CCN1Cc1ccccc1 (configuration not stated)	-0.5	-4.3	-2.4	-0.6	nt	8.7	5.9	nt
O=C(c1ccco1)N1CCN(S(=O)(=O)c2ccc(C3CCCCC3)cc2)CC1	-4.8	23.8	3.7	-11.8	-2.4	?	8.3	i
CC(C)N1CCN(Cc2cnc(-c3ccccc3)s2)CC1CCO (configuration not stated)	-7.5	22.2	5.8	6.1	2.1	2.3	-4.0	i
Cc1[nH]c2ccccc2c1/C=C/c1cc[n+](C)cc1	?	nt	-240.1	-13.4	8.0	nt	?	nt
Cc1nn(CC(=O)NCCCN2CCCC2=O)c(C)c1[N+](=O)[O-]	nt	10.9	-1.3	1.1	-19.2	nt	nt	nt
Cc1cc(C)c(NS(=O)(=O)c2ccc3c(c2)NC(=O)C(C)C(=O)N3)c(C)c1 (configuration not stated)	-13.4	nt	-10.5	0.4	12.0	-18.6	-12.6	i
O=S(=O)(c1cccc(-c2nnco2)c1)N1CCCC1	-5.6	17.1	5.6	4.4	-23.0	-2.0	5.4	nt
CCCNS(=O)(=O)c1cc(Br)cc2c1N(C(=O)CC)CC2	-3.9	-12.7	4.4	1.0	-8.1	-9.4	-5.7	i
Cc1ccc(/C(O)=C/c2nc3ccccc3oc2=O)cc1	24.4	-0.3	nt	nt	-19.2	21.2	13.0	i
COc1cccc2[nH]c(C(=O)NCCCN3CCCC3=O)cc12	6.6	-19.5	1.8	4.6	0.5	-1.2	3.6	i
CCCN1CNc2c(c(=O)[nH]c(=S)n2CCc2ccccc2)C1	-7.4	-2.5	2.5	-0.2	nt	-20.8	1.5	i
COc1ccc(CCNCC(O)c2ccccc2)cc1 (configuration not stated)	13.2	-23.4	2.2	1.5	nt	-4.7	-1.7	i
Cc1ccc(CNC(=O)CNC(=O)[C@@H]2Cc3ccccc3CN2C(=O)OC(C)(C)C)cc1	-2.5	-15.5	-5.2	0.5	-8.5	3.3	-7.5	i
CN1CCCCCC1=Nc1ccc([N+](=O)[O-])cc1	nt	-9.4	2.9	2.2	-18.1	10.2	nt	i
CCNC(=O)C1(C)CCCN(Cc2ccc(-c3ccccn3)cc2)C1 (configuration not stated)	nt	nt	-0.7	-0.9	-18.5	-53.1	nt	nt
O=C(CN1C(=O)CCSc2ccc(S(=O)(=O)N3CCCC3)cc21)Nc1ccccc1	-5.5	-4.7	0.6	4.0	-14.5	0.7	1.1	i
CC1(C(=O)NCc2ccc3c(c2)OCO3)CCN1CCc1ccccc1 (configuration not stated)	nt	nt	2.4	3.2	-1.4	-2.9	nt	nt
O=C(COC(=O)c1ccc(O)cc1)Nc1ccccc1	8.6	-6.9	1.0	3.7	-20.7	-51.5	5.7	i
CN1C[C@@H]2[C@@H]3C(=O)N(C)C(=O)[C@@H]3[C@](Cc3ccccc3)(C1=O)N2C(=O)c1ccccc1	nt	nt	-1.4	6.3	6.6	-1.1	nt	nt
CC(=O)Nc1ccc2c(c1)CCC2=O	9.5	-2.2	4.0	1.1	-7.6	-2.2	9.9	i
CC(C)c1cc(C(F)(F)F)nc(NNc2nc(C(C)C)cc(C(F)(F)F)n2)n1	nt	nt	5.3	-7.0	4.6	13.1	nt	nt

The results go on:
SMILES	eIF4H FP inh	CSC inhib	MT1-MMP act inh	MT1-MMP act inh RFP	UUG fidelity	HIV Env fusion	PABP FP inh	Rce1 inhib	others
O=S1(=O)CCOC[C@H](c2ccccc2)N1Cc1ccccc1	5.2	6.8	-2.0	0.7	-2.0	20.6	2.3	i
COc1ccc(/C=C2/SC(=O)NC2=O)cc1	-5.8	5.5	0.1	5.6	nt	-19.0	0.1	i
O=C(CCN1C(=O)C2C3C=CC(C3)C2C1=O)NC1CCCc2ccccc21 (configuration not stated)	-8.9	nt	-4.7	1.9	-12.6	-5.1	5.9	i
Cc1ccc(C(=O)O/N=C/c2c(C)nn(C)c2Cl)cc1	-1.3	-12.5	-4.9	-2.8	nt	5.4	-1.8	i
O=C(N/N=C\C=C\c1ccco1)c1cc(-c2ccc3ccccc3c2)n[nH]1	71.2	2.3	-1.0	4.6	nt	-64.1	-23.2	i	eIF4H FP inh retest=-4.8;PABP FP inh retest=1.6
CCCN(CCC)CCCNC(=O)c1ccc(CS(=O)(=O)c2c(Cl)cccc2Cl)o1	-0.8	25.2	3.4	5.1	-14.8	5.3	-6.1	i
CC(Sc1nnc(-c2cccnc2)n1N)C(=O)N1CCOCC1 (configuration not stated)	nt	-7.9	0.3	-1.5	-0.3	nt	nt	i
O=C1CC(Cc2ccccc2)C(=O)N1c1ncccn1 (configuration not stated)	-7.1	-9.8	-1.2	0.5	-17.8	-1.9	-0.1	i
O=C(O)c1cc(-c2cccnc2)nc2ccccc12	-0.5	-11.0	-0.4	-0.5	-23.1	3.1	-0.9	i
COC(CNC(=O)c1cccc2c1C(=O)N(Cc1cccnc1)C2)OC	6.2	-3.4	-1.2	5.9	-14.1	10.7	4.7	i
COc1ccc(N(CC(=O)N2CCCCCC2)S(=O)(=O)c2c(C)[nH]c(=O)[nH]c2=O)cc1	5.9	-6.1	0.5	5.9	-14.8	1.4	5.4	i
CN1CCN(S(=O)(=O)c2ccc(NC(=O)c3cccc(S(=O)(=O)N4CCCC4)c3)cc2)CC1	-4.8	-13.8	2.9	-1.7	nt	nt	2.3	i
CCC(C)NCCOc1ccc(C)cc1[N+](=O)[O-] (configuration not stated)	3.6	nt	1.5	2.1	nt	-14.8	14.4	i
CCSCCOC(=O)C1=C(C)N(C)C(=O)NC1c1ccc2c(c1)OCO2 (configuration not stated)	-13.9	-7.9	1.4	-3.0	-1.6	-30.4	1.2	i
Cc1cc(S(=O)(=O)N2CCCCCC2)c(Cl)cc1Cl	1.1	67.9	0.8	0.9	nt	31.9	1.5	i
Cc1cccc(NC(=O)C[n+]2ccc(N(C)C)cc2)c1	-5.7	7.8	1.1	-6.5	-7.9	7.7	-4.9	i
CCOc1ccc(CCNC(=O)COn2nnc3ccc(S(=O)(=O)N4CCOCC4)cc32)cc1OCC	nt	-18.8	-4.3	-1.7	nt	-125.1	nt	i
CS(=O)(=O)N1CCN(c2cccc(Cl)n2)CC1	-4.9	-20.9	-0.8	-1.4	-2.5	nt	-8.3	i
COC(=O)CSc1n[nH]c(-c2cccnc2)n1	-11.8	4.1	9.3	-3.2	-12.7	nt	-3.2	i
Cc1ccc2[nH]c3nc(NN)nnc3c2c1	-5.9	nt	-1.2	0.4	-24.0	i	-15.9	i
O=C(COc1ccccc1Cl)NCc1nc(-c2ccccc2)no1	-15.5	12.4	1.0	4.4	-8.3	-0.6	-5.5	i
CC1CCc2sc3ncn4nc(C(=O)NCc5ccco5)nc4c3c2C1 (configuration not stated)	5.7	-17.5	-3.0	-2.1	-18.2	-35.5	-2.6	i
